Screens: PubChem BioAssay, National Center for Advancing Translational Sciences (NCATS)
Vaccinia mCherry – qHTS for Stage-Specific Inhibitors of Vaccinia Orthopoxvirus: mCherry Reporter Primary qHTS; Vaccinia virus mCherry reporter infection, fluorescence; about a quarter of the inactives have no number; 0.63% of 310,000 active; Potency, µM (series often up to 36.5 µM), for the others: top-dose activity change, negative = inhibition, hits mostly inhibitors; active = well fitted inhibition curve with a large enough effect; inconclusive = small, poorly fitted or top-dose-only effect; inactive = no such curve, though single readings can be large or run the other way; tested in A549 cells; also: nearly all actives have a fitted effect of over 35% in size; inactives centre near -10
Vaccinia Venus – qHTS for Stage-Specific Inhibitors of Vaccinia Orthopoxvirus: Venus Reporter Primary qHTS; 0.46% of 330,000 active; Vaccinia virus Venus reporter expression, fluorescence; Potency, µM (highest dose often 36.5 µM), for the others: at the top dose activity change, negative = inhibition, hits mostly inhibitors; active means well fitted inhibition curve with a large enough effect; inconclusive means small, poorly fitted or top-dose-only effect; inactive means no such curve, though single readings can be large or run the other way; tested in A549 cells; also: nearly all actives have a fitted effect of over 30% in size; inactives centre near -10
Active calls of the source: *; i = inactive; ? = inconclusive; · = not tested or not shown; [ ] = dose if it differs, or a comment. % is scaled to controls: 0 for no effect and ±100 for the full control effect; potency is read from the fitted curve at half-maximal effect.

SMILES	Vaccinia mCherry	Vaccinia Venus
Cc1cc(C)nc(SCc2nnc(SCc3ccc([N+](=O)[O-])cc3)n2Cc2ccco2)n1	-4%	-21%
CCCCn1nnnc1C1(C)CCC(=O)N1CCc1ccc(O)cc1 (stereo not drawn)	-5%	1%
Cc1cc(C)cc(-n2c(SCC(=O)NCc3ccc4c(c3)OCO4)nc3ccccc3c2=O)c1	-14%	-9%
COc1ccc(CNC(=O)CN2C(=O)CC(c3ccccc3)=Nc3ccccc32)cc1	i	-3%
Cc1noc(C)c1CSc1nnc(-c2cc(Cl)ccc2Cl)n1N	-3%	4%
O=C(O)c1cnn(-c2ccccc2)c1-c1ccccc1	-13%	-5%
CC(C)(C)c1nnc(NC(=S)Nc2ccccc2)s1	-1%	-14%
Cc1ccccc1N1CCN(C(=O)CN2C(=O)c3ccccc3C2=O)CC1	i	-12%
CCCc1cc(C(=O)Cc2nc3ccccc3s2)c(O)cc1O	-18%[1.46 µM]	-8%
CC(C)NC(=O)Nc1cccc2c1O[C@H](CN(C)C(=O)NC(C)C)[C@@H](C)CN([C@H](C)CO)C2=O	-10%	-5%
C/C=C/c1cccc(-c2nc(C(=O)N3CCN(C)CC3)cc3c2[C@@H](CCO)N(C(=O)NC(C)C)C3)c1	36%[activator]	-2%
O=C(NCc1ccco1)c1ccc(CNc2c(N3CCCCC3)c(=O)c2=O)cc1	-14%	-4%
N=c1ccn(Cc2cccc(Cl)c2)cc1	·	?
CN1CCN(c2nc(NCc3ccco3)nc(N)c2[N+](=O)[O-])CC1	-6%[7.34 µM]	-5%[7.34 µM]
CCOC(=O)c1cc(-c2ccc(C)cc2)n(CCC(=O)Nc2cc(Cl)ccc2C)c1C	-13%	-13%
CCc1cc(C(=O)N2CCCC(CCC(=O)NCc3cccc(OC)c3)C2)no1 (stereo not drawn)	-12%	-18%
COc1ccc(OCCNC(=O)c2ccc3nc(C)c(N(C)C(=O)CCc4ccccc4)n3c2)cc1	-5%	-17%
OC[C@H]1O[C@@H](c2nc(-c3cccc4ccccc34)no2)[C@H](O)[C@@H]1O	12%	-13%
CCCCN1CC(O)=C(c2nc(-c3ccc(Br)cc3)cs2)C1=N	-12%	-10%
Cc1nc2ccc(C(=O)NCC3CCC4(CCN(Cc5cccnc5)CC4)O3)cc2nc1C (stereo not drawn)	-11%	4%
CCN(CC)C(=O)C1=C(C)N(Cc2ccc(F)cc2)C(=O)C(CC(=O)NCCN2CCOCC2)C1 (stereo not drawn)	i	-6%
O=C(Cc1csc(Nc2nc(=S)[nH]c3ccccc23)n1)N1CCN(c2cccc(Cl)c2)CC1	i	-7%
COc1ccccc1N1C(=O)C=C(Sc2nc(C)cc(C)n2)C1=O	i	11%
COC(=O)c1cc2sccc2n1Cc1ccc(F)cc1Cl	i	-4%
COc1ccc([C@H]2CC(=O)C[C@@H](CCn3cc(Cc4ccccc4)nn3)O2)cc1	-4%	-2%

Pulled one by one from above, 7 records:
SMILES	Vaccinia mCherry	Vaccinia Venus
Cc1noc(C)c1CSc1nnc(-c2cc(Cl)ccc2Cl)n1N	-3%	4%
COc1ccc([C@H]2CC(=O)C[C@@H](CCn3cc(Cc4ccccc4)nn3)O2)cc1	-4%	-2%
CN1CCN(c2nc(NCc3ccco3)nc(N)c2[N+](=O)[O-])CC1	-6%[7.34 µM]	-5%[7.34 µM]
CC(C)(C)c1nnc(NC(=S)Nc2ccccc2)s1	-1%	-14%
COc1ccccc1N1C(=O)C=C(Sc2nc(C)cc(C)n2)C1=O	i	11%
COc1ccc(CNC(=O)CN2C(=O)CC(c3ccccc3)=Nc3ccccc32)cc1	i	-3%
Cc1cc(C)cc(-n2c(SCC(=O)NCc3ccc4c(c3)OCO4)nc3ccccc3c2=O)c1	-14%	-9%

Other entries.
SMILES	Vaccinia mCherry	Vaccinia Venus
O=C(COC(=O)CCOc1ccccc1)NCc1ccco1	-6%	1%
O=C(NC(=S)Nc1nc(-c2ccc(Br)cc2)cs1)c1ccco1	-18%	-3%
COc1ccccc1-c1cc2nc(C)cc(C)n2n1	i[7.34 µM]	-9%[7.34 µM]
C[C@@H]1COc2cccc(N(C)CCO)c2S(=O)(=O)N1	3%	-7%
COC(=O)N=Nc1c(O)n(Cc2ccccc2)c2ccccc12	i	-8%
CCCCC(=O)Nc1ccccc1Oc1ccccc1	-26%	-19%
CC(C)Sc1nc(N2CCOCC2)c2c(c1C#N)CC(C)(C)SC2	-8%	-12%
Cc1cccc(NC(=O)C2CCN(S(=O)(=O)c3ccc4c(c3)C(C)(C)C(=O)N4C)CC2)c1C	-19%	-16%
Cc1c(N=Cc2c(O)n(CCc3ccccc3)c(=O)[nH]c2=O)c(=O)n(-c2ccccc2)n1C	·	?
COc1cc(NC(=O)c2cccnc2SC)cc(OC)c1	-14%	-4%
COc1cccc(N2CCN(C3CC(=O)N(c4ccc(F)c(Cl)c4)C3=O)CC2)c1 (stereo not drawn)	-14%	-15%
COc1ccccc1NS(=O)(=O)c1cc(NC(=O)c2cc[n+]([O-])cc2)ccc1N1CCCC1	?	-16%
O=C(Cc1ccc(NC2=NC3CS(=O)(=O)CC3S2)cc1)NCc1ccccc1 (stereo not drawn)	-14%	-2%
Cc1ccc(CN2CCc3[nH]c(=O)[nH]c(=O)c3C2)cc1	i	-8%
CN1[C@@H](COCc2ccccc2)C=CS1(=O)=O	-4%	3%
CN(Cc1ccccc1)C1CCCN(C(=O)COc2ccccc2Cl)C1 (stereo not drawn)	-20%	-16%
CCc1nnc(N2C(=O)c3ccc(Oc4ccc([N+](=O)[O-])cc4)cc3C2=O)s1	-8%	6%
CCCNC(=O)c1ccc(N2CCC3(CC2)CC(c2ccccc2)=NO3)c(NC(=O)c2ccco2)c1	-15%	?
COc1ccc(CNC(=O)c2cccc(N3CCCC3=O)c2)cc1	-9%	-7%
COC(=O)C1=C(c2cc3ccccc3o2)C[C@@H]2CC[C@H]1N2C(=O)NC(C)C	-9%	-20%
CCOCCCNC(=O)CN1C(=O)CSc2ccc(S(=O)(=O)N3CCOCC3)cc21	7%[7.34 µM]	0%[7.34 µM]
COc1ccc(-c2c3c(=O)n(C)c(=O)n(C)c3c3n2-c2ccccc2NC3c2ccc(OC)cc2)cc1 (stereo not drawn)	-23%	-14%
Clc1ccc(-n2ncc3c(N4CCCCCC4)ncnc32)cc1	i	-8%
O=C(NCc1cccnc1)c1ccc(NS(=O)(=O)c2cccc([N+](=O)[O-])c2)cc1	i	-5%
CN1CCN(c2ccc(NC(=O)COc3ccc4ccccc4c3)cc2)CC1	?	-14%

Next results
SMILES	Vaccinia mCherry	Vaccinia Venus
Cc1ccc(S(=O)(=O)N2CCC(C(=O)N3CCN(c4ccccn4)CC3)CC2)cc1	i	-4%
CCCCOC(=O)c1ccc(NC2=NS(=O)(=O)c3ccccc32)cc1	13%	7%
Cc1ccc(OCC(=O)Nc2nc(-c3ccc(Br)cc3)ns2)cc1C	-8%	-8%
COc1cccc(NC(=O)CSc2cc(=O)n(C)c3ccc(Cl)cc23)c1	-28%	-21%
CCC(C)NC(=O)c1c(F)c(F)c(F)c(F)c1F (stereo not drawn)	·	?
S=c1[nH]c2ccc(Cl)cc2[nH]1	·	?
CN(CC(=O)Nc1ccc(F)cc1)C(=O)CN1C(=O)NC2(CCCCC2)C1=O	i	-5%
O=C(NCc1ccccc1C(F)(F)F)C12CN(Cc3ccccc3)CC1C(c1ccc([N+](=O)[O-])cc1)=NO2 (stereo not drawn)	-11%	2%
O=C(Nc1ccc2c(c1)OCO2)C1CCN(S(=O)(=O)c2cccc3cccnc23)CC1	-6%	-5%
Cc1c(NC(=O)COC(=O)C2(c3ccccc3F)CCCC2)c(=O)n(-c2ccccc2)n1C	-5%	-14%
CCN1C(C(=O)c2ccccc2)=C(NC(=O)c2ccc(Cl)cc2)c2ccccc2S1(=O)=O	i	-12%
NC(=O)NC(Cc1ccccc1)C(=O)NCC1(N2CCCCC2)CCCCC1 (stereo not drawn)	-3%	-19%
CCC(Oc1ccc(Cl)cc1)C(=O)N1CC(=O)Nc2ccccc21 (stereo not drawn)	-2%	-18%
CC1(C)OC2OC(COC(=O)c3ccccc3)C3OC(C)(C)OC3C2O1 (stereo not drawn)	-9%	-5%
CCSc1ncc(Cl)c(C(=O)Nc2nc3ccc(OC)cc3s2)n1	-21%	-10%
O=C(C=Cc1ccccc1)CC(c1ccccc1)N1CCOCC1 (stereo not drawn)	?	?
CCSc1nc2c(c(=O)n1CC)SC(C)C2 (stereo not drawn)	-18%	-13%
CCCCNC(=O)c1nc(-c2cccnc2)oc1-c1ccc(OC(F)(F)F)cc1	-24%	-6%
CCN(CC)C(=O)C1=C(C)N(CCC2=CCCCC2)C(=O)C(CC(=O)NCc2cccs2)C1 (stereo not drawn)	-12%	-19%
Cc1ccc(C)c(OCc2nnc(SCC(=O)NCc3ccc4c(c3)OCO4)o2)c1	-5%	3%
Cc1cccc(C)c1NC(=O)CN1CCN(C(=O)CCC(=O)N2CCC(c3ccccc3)=N2)CC1	i	-14%
CC(=O)Nc1cccc(/C(C)=N/NC(=O)c2ccc(NS(=O)(=O)c3cccs3)cc2)c1	i	-20%
C(=Nc1ccc(/C=C/c2ccnc3ccccc23)cc1)c1cc2c3c(c1)CCCN3CCC2	12%	3%
Cc1cc(F)cc(-c2cc(C(=O)NCC3CCCCC3)[nH]n2)c1	14%	-6%
CC(C)(O)C#Cc1ccccc1C(=O)NC(CC(N)=O)C(=O)O (stereo not drawn)	·	-11%

(listing goes on)
SMILES	Vaccinia mCherry	Vaccinia Venus
CN(C)S(=O)(=O)c1cccc(C(=O)C2=C3SC=C(c4ccccc4)N3CC2)c1	0%	-15%
CC(C)(C)c1ccc(/C=C2/SC(N3CCCC3)=NC2=O)cc1	?	-17%
O=C1NC(=O)C2(CCCCCCC2)N1	-12%	8%
COc1ccc(/C=N/NC(=O)c2ccc(CN3c4cccc5cccc(c45)S3(=O)=O)cc2)cc1	-14%	-15%
O=[N+]([O-])c1ccc(-c2c(-c3ccccc3)ncc3ccc(F)cc23)cc1	-14%	-7%
CCCCN1C(=O)CN(C2CCCCCC2)C(=O)C1c1ccc(OCC)c(OC)c1 (stereo not drawn)	-11%	-6%
O=C(CSc1nnnn1-c1ccc(F)cc1)c1ccc(O)c(O)c1	-24%	-14%
COCCSc1nnc(NS(=O)(=O)c2ccc(F)cc2)s1	i	-8%
Cc1csc(SCC(=O)Nc2c(C)n(C)n(-c3ccccc3)c2=O)n1	-5%	4%
C=CCNc1oc(COc2ccc(C)cc2)nc1C#N	-8%	0%
CS(=O)(=O)N(CC(=O)Nc1cccc([N+](=O)[O-])c1)c1ccccc1F	-9%	-19%
CN(C)S(=O)(=O)c1ccc(C(=O)Nc2ccc(OCC(=O)N3CCOCC3)cc2)cc1	·	-6%
O=C(Nc1nc2c(Cl)cccc2s1)c1ccc(Br)o1	i	-3%
Brc1ccccc1-c1nnc(COc2ncnc3c2cnn3-c2ccccc2)o1	·	-27%
Cc1c(C(=O)N2CCCCC2)c(S(=O)(=O)NCCc2ccc(S(N)(=O)=O)cc2)c(C)n1C	i	-7%
Cc1cc(S(=O)(=O)NC(C)C)ccc1OCC(=O)N1CCN(Cc2ccc3c(c2)OCO3)CC1	-15%	?
COc1cccc(C(=O)N2CCN(c3ccccn3)CC2)c1	-13%	-5%
CC(C)c1ccc(Nc2ccc(C(=O)O)cc2[N+](=O)[O-])cc1	-18%	-12%
O=C(Nc1cc([N+](=O)[O-])ccc1Cl)c1cccnc1	i	-12%
COc1ccccc1-n1cc(C(=O)NCCN2Cc3ccccc3OC(c3ccsc3)C2)cn1 (stereo not drawn)	-17%	0%
Cc1ccc(-c2cc(C(=O)NCc3ccccn3)c3ccccc3n2)cc1	-21%[1.46 µM]	-13%
COc1ccccc1Nc1sc(C(=O)c2ccc(C)cc2C)c(N)c1S(=O)(=O)c1ccccc1	-19%	-9%
O=C(CSc1nc(O)c(Cc2ccccc2)c(=O)[nH]1)Nc1nnc(SCc2ccccc2)s1	i	-13%
C[C@@H]1COC(=O)[C@H](CC(=O)OC(C)(C)C)C/C=C\C[C@@H](CC(=O)N(CCO)Cc2ccccc2)C(=O)N1	-12%	-21%
CC(C)NC(=O)C1(C)CCN1C(=O)C/C=C/c1ccccc1 (stereo not drawn)	6%	2%

Profiles, quoted from the list. Values in the order: Vaccinia mCherry	Vaccinia Venus
`C[C@@H]1COC(=O)[C@H](CC(=O)OC(C)(C)C)C/C=C\C[C@@H](CC(=O)N(CCO)Cc2ccccc2)C(=O)N1` as listed: -12%	-21%
`O=C(CSc1nnnn1-c1ccc(F)cc1)c1ccc(O)c(O)c1` as listed: -24%	-14%
`COc1cccc(C(=O)N2CCN(c3ccccn3)CC2)c1` as listed: -13%	-5%

New compounds follow
SMILES	Vaccinia mCherry	Vaccinia Venus
Brc1ccc2c(c1)C(OC1CN3CCC1CC3)c1ccccc1CS2 (stereo not drawn)	?	11µM*
O=S(=O)(Nc1ccc(-n2cnnn2)cc1)c1ccc(Cl)s1	-23%	-1%
Cc1ccc2nc(N3CCOCC3)c(C=O)c(=O)n2c1	-13%	0%
CCCC12CN3CN(C1)CC(CCC)(C3)C2O (stereo not drawn)	-13%	-4%
COCC1CCN(C(=O)c2cc(COc3ccc4ncccc4c3)on2)CC1	-24%	-22%
CC(C)NC(=O)Cn1nnc(-c2ccc(Cl)cc2)n1	-8%	-1%
CC(=O)c1ccc(NC(=O)CN2C(=O)CCC2=O)cc1	-2%	-13%
CC(C)C(NS(=O)(=O)c1ccc(Br)s1)C(=O)O (stereo not drawn)	·	?
CCc1ccccc1NC(=O)c1ccc2c(c1)c(C)c(C)n2Cc1ccccc1	i	-18%
O=C(Nc1ccc(Cl)cc1)N[C@H]1CC[C@H](CCn2cc(-c3ccccc3F)nn2)O[C@@H]1CO	14%	-17%
